Source: PubChem (National Center for Advancing Translational Sciences (NCATS))
LT uptake inh = inhibitors of anthrax lethal toxin internalization | Cells, anthrax lethal toxin internalization, FRET ratio (460/530) | 70,000 tested, 0.67% active | AID 912 | Potency, µM (titrated, usually from 40 µM), inactives show top-dose activity change, negative = inhibition, usual class: inhibitors; active = well fitted falling ratio curve with the 530 nm signal flat; inconclusive = other ratio curves, or a change in one channel alone; inactive = flat curves in the ratio and both channels; the % refers to the ratio; note: % is set by controls: 0 for no effect and ±100 for the full control effect; nearly all actives have a fitted effect of over 50% in size; tested in ME-180 cells; beta-lactamase reporter
Prx2 Sm inh = inhibitors of Schistosoma mansoni peroxiredoxin 2; S. mansoni Prx2 activity coupled to TGR/GSH (TGR is thioredoxin glutathione reductase), NADPH fluorescence loss, qHTS; some inactives read as strong as hits; Potency, µM; 65,000 tested, 0.07% active; active means full or partial inhibition curve with a strong effect at the top dose; inconclusive means weaker partial or single-point curve; inactive means no accepted curve; note: series up to 57 µM; many of its hits are not listed in these tables
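Prx2 activity was followed as the loss of NADPH fluorescence (ex 365/em 450 nm), read every 30 sec for 8 min after H2O2 start. The enzyme mix (50 nM Prx2, 25 nM TGR, GSH, NADPH; pH 7.4 phosphate buffer) was incubated with compound for 15 min at room temperature first.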
An asterisk follows results filed as active; u = inconclusive; x = not tested or not shown; [ ] = dose if it differs, or a comment. Potency is the fitted concentration of half-maximal effect. The list is partial (hit frequency here may not be typical).

Every second line gives: LT uptake inh | Prx2 Sm inh
> N/C(=N/O)c1nc(N2CCCC2)nc(N(c2ccccc2)c2ccccc2)n1
    -9% | >57
> CC1CN(S(=O)(=O)c2ccc(-c3nc4ccccc4s3)cc2)CC(C)O1 (centres undefined)
    16% | >57
> Cc1ccc(S(=O)(=O)N[C@H]2COC(=O)[C@@H](Cc3ccccc3)NC(=O)[C@@H](C)COC(=O)C/C=C\[C@@H]2C)cc1
    2%[1.6 µM] | x
> CN1CC[C@@]23CCCC[C@@H]2[C@@H]1Cc1ccc(O)cc13
    -1% | >57
> COc1ccc(C(c2nnnn2C(C)(C)C)N2CCN(C)CC2)cc1OC (centres undefined)
    u | >57
> CCc1c(C)nc(SCCOc2ccc(OC(C)C)cc2)[nH]c1=O
    -2% | x
> O=C(NC1CCCCCC1)c1nnc(Cc2ccc(Cl)cc2)o1
    2% | >57
> O=C1C=C(c2ccccc2)C(O)(c2ccccc2)C1 (centres undefined)
    -4% | >57
> Cc1ccc2oc(=O)c3cnn(CC(=O)NCCCOC(C)C)c3c2c1
    -15% | >57
> COc1ccc(-c2noc(CCC(=O)Nc3ccc(C)c(C)c3)n2)cc1
    -11% | >57
> O=C(C1CCN(S(=O)(=O)c2cnc[nH]2)CC1)N1CCN(c2ncccn2)CC1
    0% | >57
> COCCN1C=C(C(=O)OC)C(c2ccc(OC)c(OC)c2)C(C(=O)OC)=C1
    u | >57
> CCn1c(N2CCN(CC(=O)Nc3cccc(C)c3C)CC2)nc2ccccc21
    u | >57
> O=c1c(/C=N/O)coc2ccc3ccccc3c12
    8% | >57
> O=C(NCc1cccnc1)C1c2ccccc2C(=O)N1Cc1ccco1 (centres undefined)
    0% | >57
> Cc1ccc(-n2ncc(C(=O)NCc3ccc4c(c3)OCO4)c2NC(=O)c2ccco2)cc1C
    -18% | >57
> COc1ccc(C(=O)Nc2ccc(S(=O)(=O)Nc3nccnc3OC)cc2)cc1OC
    -7% | x
> C=CCOn1c(=O)c(=O)n(OCc2ccccc2)c2ccccc21
    x | >57
> Cc1c(C(=O)O)[nH]c2c1C(=O)CC(c1ccccc1)C2 (centres undefined)
    x | >57
> Cc1nc2cnc(Nc3ccccc3)nc2n(Cc2cccs2)c1=O
    u | >57
> O=c1[nH]c(=O)n(Cc2ccccc2)c(O)c1C=Nc1ccc(CN2CCOCC2)cc1
    -5% | >57
> COCCCn1c(SCc2cc(=O)[nH]c3ccccc23)nnc1-c1ccco1
    -1% | >57
> O=C(Oc1ccnc2cc(Cl)ccc12)N1CCCCCC1
    -6% | x
> O=c1cnc2cnc(OCc3ccccc3)nc2n1CCc1ccccc1
    -23% | >57
> Cn1c(=O)oc2cc(S(=O)(=O)NCc3ccccn3)ccc21
    -11% | >57
> CC1CCN(CC(=O)N2c3ccccc3CCc3ccccc32)CC1
    2% | >57
> COc1ccc2c(c1)C(=O)N(c1ccccc1OC)C(=O)C2(C)C
    12% | >57
> O=C(O)C1C2C=CC(C2)C1C(=O)OCc1ccccc1 (centres undefined)
    0% | >57
> Cc1ccc(Cl)cc1N1CCN(C(CC(C)C)c2nnnn2CC2CCCO2)CC1 (centres undefined)
    -2% | >57
> Cc1cccc(C)c1OCC(=O)Nc1cccc(NC(=O)c2ccco2)c1
    x | >57
> Cc1ccc(S(=O)(=O)Cn2nnnc2CN(Cc2ccco2)Cc2cccs2)cc1
    -21% | >57
> COc1ccc(NC(=O)CN2CCN(C3c4ccccc4-c4ccccc43)CC2)c(OC)c1
    -7% | >57
> COC(=O)CCCCCN1C(=O)NC(CC2CC2)C(C(=O)OCc2ccccc2)=C1C (centres undefined)
    -13% | x
> CN(C)C(=O)CSc1nnc(C23CC4CC(CC(C4)C2)C3)o1
    7% | >57
> Cc1cnc(NC(=O)c2ccco2)s1
    2% | >57
> CC(C)c1ccc(-c2nc(N3CCCCC3)[nH]c(=O)c2C#N)cc1
    -13% | >57
> COc1cc(/C=N/n2cnnc2)ccc1OC(=O)c1ccncc1
    2% | x
> CCOc1ccc(S(=O)(=O)n2nnc3ccccc32)cc1C(C)C
    14% | >57
> N#C/C(=C1\CCCN1)c1ccc2ccccc2n1
    2% | >57
> COC(=O)c1c(NC(=O)CN2CCN(c3ccccc3)CC2)c2c(C)cccc2n1C
    -2% | >57
> COc1cccc(-c2nccc(NCc3cccnc3)n2)c1
    14% | >57
> O=C(Nc1cccnc1)c1cccs1
    u | >57
> CC(OC(=O)c1cc2sccc2n1C)C(=O)NCc1ccc2c(c1)OCO2 (centres undefined)
    -4% | >57
> CC1=C(C(=O)Nc2ccccc2)SCCO1
    -2% | u
> CC1(C)CC(=O)c2sc(NC(=O)CN3C(=O)CCC3=O)nc2C1
    17% | >57
> O=C(Nn1cc(C(=O)N2CCN(c3ccccc3F)CC2)c2ccccc2c1=O)c1cnccn1
    14% | >57
> CNC(=O)C1CC(=O)N(c2ccc(F)c(Cl)c2)C1 (centres undefined)
    -7% | >57
> CCOC(=O)C(Cc1ccccc1)C(=O)Nc1nccs1 (centres undefined)
    -12% | x
> CCCN(c1ccc(C(C)C)cc1)S(=O)(=O)c1c(C)[nH]c(=O)[nH]c1=O
    -15% | >57
> COC(=O)[C@@]1(Cc2ccc(F)cc2)[C@H]2c3cc(C(=O)N4CCCC4)n(CCF)c3C[C@H]2CN1C(=O)c1ccccc1
    u | >57

Reprinted from the part before: 2 entries, followed by the next part.
Every second line gives: LT uptake inh | Prx2 Sm inh
> CCCN(c1ccc(C(C)C)cc1)S(=O)(=O)c1c(C)[nH]c(=O)[nH]c1=O
    -15% | >57
> COC(=O)[C@@]1(Cc2ccc(F)cc2)[C@H]2c3cc(C(=O)N4CCCC4)n(CCF)c3C[C@H]2CN1C(=O)c1ccccc1
    u | >57
> CC(=O)N1CCc2cc(C(=O)CN3CCCCC3)ccc21
    0% | >57
> CC(=O)O[C@H]1C[C@H]2CC[C@@H]3[C@@H](CC[C@]4(C)[C@H](OC(C)=O)[C@H]([N+]5(C)CCCCC5)C[C@@H]34)[C@]2(C)C[C@H]1[N+]1(C)CCCCC1
    u | >57
> CCCCCSc1nnc2c(n1)OC(C)N(C(C)=O)c1ccccc1-2 (centres undefined)
    -22% | >57
> CC(NC(=O)Nc1ccccn1)N1C(=O)C2C3C=CC(C3)C2C1=O (centres undefined)
    3% | >57
> CCCOC(=O)c1ccc(Oc2cn[nH]c2-c2ccc(OC)cc2O)cc1
    x | >57
> O=C(COC(=O)C1(c2ccccc2F)CCCC1)NC1CCS(=O)(=O)C1 (centres undefined)
    -3% | >57
> CC(Oc1ccc(Cl)cc1Cl)C(=O)NCCCN1CCOCC1 (centres undefined)
    -16% | >57
> CCC(=O)N1CCc2cc(S(=O)(=O)N3CCN(C(=O)c4ccco4)CC3)ccc21
    -4% | >57
> CC(C)CCNC(=O)C(c1ccco1)N(C(=O)Cn1nnc2ccccc21)c1ccc2c(c1)OCO2 (centres undefined)
    -5% | >57
> CC1CCCCN1CC(=O)c1ccc2cc[nH]c2c1 (centres undefined)
    6% | >57
> Cc1noc(C)c1-c1nc(N(C)C)c2ccccc2n1
    -19% | >57
> O=C(Nc1cc(C(F)(F)F)ccc1N1CCCC1)c1cccnc1
    -6% | >57
> CCOc1ccc(-c2nnn(CC(=O)Nc3cccc(OC)c3)n2)cc1OCC
    -13% | >57
> Cc1nc(C)n(CC(O)COc2ccc3ccccc3c2)n1 (centres undefined)
    2% | >57
> O=C1c2ccccc2C(=O)N1Cc1nn2c(-c3ccc(Cl)cc3)nnc2s1
    -14% | >57
> CC1(C)CC2(CCO1)N1CC3(C)CN2CC(C)(C1)C3O (centres undefined)
    9% | >57
> Cc1cc2c(c(=O)o1)C(C13C=CC(CC1)C3)C(C#N)=C(N)O2 (centres undefined)
    -1% | >57
> CCCc1cc2c(c(NC(C)=O)n1)c(=O)oc1ccccc12
    x | >57
> CS(=O)(=O)NC1c2cccc3cccc(c23)C1N1CCOCC1 (centres undefined)
    -7% | >57
> COc1ccc(C(=O)CSc2nnc(-c3ccoc3C)n2CC2CCCO2)cc1 (centres undefined)
    u | >57
> Cc1cccc(OCC(=O)N(Cc2cccs2)C2CCS(=O)(=O)C2)c1 (centres undefined)
    5% | >57
> O=C(OCN1C(=O)c2ccccc2C1=O)c1ccc2c(=O)n3c(nc2c1)CCC3
    -7% | >57
> Cc1ccc2nc(NCCO)nc(-c3ccccc3)c2c1
    u | >57
> C[C@@H](C(=O)Nc1ccc2ccccc2c1)[C@@H]1C[C@@]1(C)[C@@H](NS(=O)(=O)c1ccc(-c2ccccc2)cc1)c1ccccc1
    u | >57
> CC1CCCCC1NC(=O)c1ccc(S(=O)(=O)NCc2ccco2)cc1 (centres undefined)
    -10% | >57
> COC(=O)c1ccc(N2C(=O)CC(N3CCC(n4c(=O)[nH]c5ccccc54)CC3)C2=O)cc1 (centres undefined)
    -3% | >57
> COC(=O)Nc1ncc(CN2C(=O)c3ccccc3C2=O)s1
    u | >57
> COCCCN1C(=O)C(O)=C(C(=O)c2ccco2)C1c1cccc(Br)c1 (centres undefined)
    8% | >57
> Cc1nc2ccccc2c(=O)n1-c1cccc(O)c1
    u | >57
> CC(=O)c1cccc(NC(=O)N2CCCC2C(=O)Nc2cccc(C)c2C)c1 (centres undefined)
    u | >57
> CCc1nn(CC(=O)NCCCN2CCCC2=O)c(=O)c2cc3sccc3n12
    -1% | >57
> COCCn1c(=O)c(-c2cc(F)cc(F)c2)nc2cncnc21
    3% | >11
> CC(=O)c1c(C)[nH]c(C(=O)CSc2nnc(C3CCCCC3)n2N)c1C
    16% | >57
> CCOc1ccc(C(C)=O)cc1N1C(=O)C2C3C=CC(O3)C2C1=O (centres undefined)
    u | >57
> O=C(NS(=O)(=O)c1ccc(NC(=O)C2CCCO2)cc1)c1ccccc1 (centres undefined)
    1% | >57
> COC1=C(OC)c2ccccc2C(C(=O)O)N/C1=C(/C)Nc1ccncc1 (centres undefined)
    -14% | >57
> CC(=O)Nc1cc(C(=O)N2CCCC2)ccc1S(=O)(=O)c1ccc(C)cc1
    2% | >57
> C=C(C)Cn1c(N2CCCC2)nc2c1c(=O)[nH]c(=O)n2C
    11% | >57
> O=C(O)c1ccc(NC(=O)C2CC=CCC2C(=O)O)cc1 (centres undefined)
    -4% | >57
> CN(C)c1ccccc1
    -4% | x
> Cc1cccn2c(=O)c3cc(C#N)c(=NC(=O)c4ccncc4)n(CCCOC(C)C)c3nc12
    x | >57
> Cc1cc(NC(=O)c2cc(-c3cccs3)nc3ccccc23)no1
    u | >57
> N#Cc1c(NC(=O)CN2CCN(S(=O)(=O)c3ccc4c(c3)OCCO4)CC2)sc2c1CCC2
    12% | >57
> COc1ccc(-c2sccc2C(C)C(=O)O)cc1 (centres undefined)
    -11% | >57
> CCOC(=O)C1=C(c2ccccc2)NC(=O)NC1c1ccc(OCC#N)c(OC)c1 (centres undefined)
    14% | >57
> CS(=O)(=O)Nc1ccc(C(=O)NCCC2=CCCCC2)cc1
    -12% | >57
> CC1(C)Cc2ccccc2C(=NCCCC(=O)O)N1
    2% | >57
> CCOC(=O)C1CCCN(c2cc(C)nc3cc(-c4ccc(F)cc4)nn23)C1 (centres undefined)
    -7% | >57
> CC1CCN(c2c(NCc3ccc(C(=O)NCc4cccnc4)cc3)c(=O)c2=O)CC1
    1% | >57
> O=C(NCc1ccco1)c1ccccc1Br
    4% | >57

Four entries from above in another layout:
CCOC(=O)C1CCCN(c2cc(C)nc3cc(-c4ccc(F)cc4)nn23)C1 (centres undefined)
  LT uptake inh: -7% | Prx2 Sm inh: >57

COc1ccc(-c2sccc2C(C)C(=O)O)cc1 (centres undefined)
  LT uptake inh: -11% | Prx2 Sm inh: >57

Cc1cc(NC(=O)c2cc(-c3cccs3)nc3ccccc23)no1
  LT uptake inh: u | Prx2 Sm inh: >57

CC1CCN(c2c(NCc3ccc(C(=O)NCc4cccnc4)cc3)c(=O)c2=O)CC1
  LT uptake inh: 1% | Prx2 Sm inh: >57

(cont.)
Every second line gives: LT uptake inh | Prx2 Sm inh
> COc1cc(OC)c(NS(=O)(=O)c2coc(C(N)=O)c2)cc1Cl
    -1% | >57
> CCNc1ncc2nc(CCc3ccccc3)c(=O)n(-c3ccc(OC)cc3)c2n1
    u | >57
> CCCCOC(=O)n1c(=O)oc2cc(S(=O)(=O)N3CCCCC3)ccc21
    u | >57
> COc1ccc(S(=O)(=O)n2c(CCN3CCOCC3)nc3ccccc32)cc1
    11% | >57
> COc1cc2c(cc1OC)/C(=C/C(=O)N1CCOCC1)NC(C)(C)C2
    -2% | >57
> O=C(O)CS(=O)(=O)c1ccc(Oc2ccc(S(=O)(=O)CC(=O)O)cc2)cc1
    0% | >57
> CN(C)S(=O)(=O)c1ccc(C(=O)NCc2cccs2)cc1
    -3% | >57
> CCOC(=O)N1CCN(S(=O)(=O)c2ccc3c(c2)SC(C)C(=O)N3)CC1 (centres undefined)
    u | >57
> COCCNC(=O)C(c1ccc(C)o1)N(CC1CCCO1)C(=O)Cn1nnc2ccccc21 (centres undefined)
    -8% | >57
> COC(=O)c1nc(NC(=O)c2ccc(Cl)cc2)n[nH]1
    -1% | >57
> CCCC1(C(=O)O)NC(c2ccc(OC)cc2O)C2C(=O)N(c3ccc(OC)cc3)C(=O)C21 (centres undefined)
    0% | >57
